Measles inh: inhibitors of measles virus growth in cells, primary screen, measles RdRp inhibitor project, cell-based, single point, HTS; AID 745, 2007; infected Vero cells, GFP fluorescence, 64 h; hits give low values; z-score (concentration not given with the values); actives 0.1% (n = 33,000);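 active means z-score under -3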;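 further: score is relative to mean and SD of the compound wells of a plate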
Starred values were filed as active, the others as inactive. Not all compounds are listed; the hit share may differ from the screen's.

SMILES | Measles inh
Nc1ncnc(N2CCC(Cc3ccccc3)CC2)c1[N+](=O)[O-] | -0.39
CCc1cccc(NC(=O)C(NS(=O)(=O)c2cccs2)C(C)C)c1 (configuration not stated) | 0.6
CCOc1cccc2cc(-c3csc(C)n3)c(=O)oc12 | 1.6
COc1ccc(-c2c3c(=O)n(C)c(=O)n(C)c3cn2-c2ccccc2C)cc1 | 0.03
CCN(c1ccccc1)S(=O)(=O)c1ccc2[nH]cc(C(=O)N3CC(C)CC(C)C3)c(=O)c2c1 (configuration not stated) | -0.67
O=C(c1ccc2c(=O)n(C3CCCC3)c(=O)[nH]c2c1)N1CCCCCC1 | -0.18
CC1CCCC(C)N1C(=O)Cn1c(=O)oc2cc(Cl)ccc21 (configuration not stated) | 1.2
Cn1cc(CC(=O)Nc2ccc(F)cc2)c2ccccc21 | -2.3

Overlap with the part before: four entries; new compounds follow.
SMILES | Measles inh
CCN(c1ccccc1)S(=O)(=O)c1ccc2[nH]cc(C(=O)N3CC(C)CC(C)C3)c(=O)c2c1 (configuration not stated) | -0.67
O=C(c1ccc2c(=O)n(C3CCCC3)c(=O)[nH]c2c1)N1CCCCCC1 | -0.18
CC1CCCC(C)N1C(=O)Cn1c(=O)oc2cc(Cl)ccc21 (configuration not stated) | 1.2
Cn1cc(CC(=O)Nc2ccc(F)cc2)c2ccccc21 | -2.3
CCOC(=O)c1c(C)oc2c(Cl)cc(NS(=O)(=O)c3ccc(Cl)cc3)cc12 | -0.27
CC(C)(C)c1ccccc1OCC(=O)NC(c1ccccc1)c1ccccc1 | 0.57
CC1CCN(S(=O)(=O)c2ccc3[nH]c(=O)cc(C(=O)NCCCN4CCOCC4)c3c2)CC1 | 0.34
CCCC(=O)Nc1ccc(-c2nc3cc(C)c(C)cc3o2)cc1 | -0.1
O=C1CCCC2=C1C(c1cccs1)c1c(nc(SCc3ccccc3)[nH]c1=O)N2 (configuration not stated) | -0.51
COC(=O)c1ccc(OCC2c3cc(OC)c(OC)cc3CCN2C(=O)c2cc3ccccc3oc2=O)cc1 (configuration not stated) | -0.31
CC(=O)N1CCc2cc(S(=O)(=O)NC(C(=O)N3CCCC(C)C3)C(C)C)ccc21 (configuration not stated) | 0.53
C=CCNC(=O)C1CC(=O)N(c2ccc(Br)cc2)C1 (configuration not stated) | 1.4
O=C(Cn1c(=O)n(-c2ccc(CC(=O)NC3CCCC3)cc2)c(=O)c2ccccc21)Nc1ccccc1[N+](=O)[O-] | 0.25
Cc1ccc(C(=O)Nc2c(C)n(C)n(-c3ccccc3)c2=O)cc1[N+](=O)[O-] | -0.52
Cc1cccc(C)c1OCC(=O)N1CCOCC1 | 1.9
O=[N+]([O-])c1ccc(Nc2nc(-c3ccccc3)c3cc(Cl)ccc3n2)cc1 | -1.8
COc1ccc(S(=O)(=O)N2CCCN(CC(=O)Nc3cc(C)ccc3OC)CC2)cc1 | -0.02
CS(=O)(=O)Nc1ccc(C2=NN(C(=O)c3ccco3)C(c3cccs3)C2)cc1 (configuration not stated) | 0.59
CCC(=O)NS(=O)(=O)c1ccc(NC(=O)c2ccccc2Cl)cc1 | 0.16
Cc1ccc(-c2cc(O)cc3sc(=O)oc23)cc1C | -0.35
O=C(O)CCC(=O)N1N=C2C(=Cc3ccc(Br)cc3)CCCC2C1c1ccc(Br)cc1 (configuration not stated) | -1.1
Cc1cccc(-c2noc(-c3ccc(C(C)(C)C)cc3)n2)c1 | 1.7
COc1ccc(C2N(C(=O)c3ccccc3)CCN2C(=O)c2ccccc2)cc1 | -0.46
Cc1cccc(NC(=O)CCS(=O)(=O)c2cccc3nsnc23)c1C | 1.5
CCOc1c(Br)cc(C2Nc3ccccc3NC3=C2C(=O)CC(c2cccs2)C3)cc1OC (configuration not stated) | 0.24
CC(=O)N(CCC1(Cc2ccccc2)CCOC(C)(C)C1)Cc1ccccc1 (configuration not stated) | -1.1
O=C(CSc1ccc(C(F)(F)F)cc1[N+](=O)[O-])Nc1cc(C(F)(F)F)ccc1N1CCCC1 | 0.62
NC(=O)C1CCN(C(=O)c2ccc3nc4ccccc4c(=O)n3c2)CC1 | 0.42
CN(C)CCCNC(=O)c1cc(-c2ccc3c(c2)OCO3)nc2ccccc12 | 1.7
O=C(Nc1cccnc1)c1ccc(-c2cccc([N+](=O)[O-])c2)o1 | -0.31
Cn1c(CSc2ncn[nH]2)nc2ccccc21 | 0.32
CC1CC(C)CN(C(=O)CSc2nc3ccccc3c(=O)n2Cc2ccc(C(=O)NC3CCCC3)cc2)C1 (configuration not stated) | -0.37
CC1=C(C(=O)Nc2ccccc2)C(c2ccc3c(c2)OCO3)C2=C(CC(C)(C)CC2=O)N1 (configuration not stated) | 0.2
CCOc1cc(C=Nc2ccc(N3CCOCC3)cc2)ccc1OC(=O)c1ccccc1 | 0.4
CC(C)(C)n1nc2c(c1NC(=O)c1ccccc1[N+](=O)[O-])CS(=O)(=O)C2 | 0.89
CC(C)(C)c1cc(S(=O)(=O)CCc2ccccn2)cc(C(C)(C)C)c1F | -1.2
Cc1ccc(-c2nc3ccccc3s2)cc1NC(=O)COc1ccccc1 | 1.2
COc1cc(-c2nc(-c3ccc4c(c3)S(=O)(=O)c3ccccc3-4)c(-c3ccccc3)[nH]2)cc(OC)c1O | 1.4
CCOc1ccccc1N(C)C(=O)C1c2ccccc2C(=O)N(C)C1c1ccc(OC)cc1 (configuration not stated) | -0.55
CCOc1ccc2c(C)c(CC)c(=O)oc2c1I | -0.26
CCCOC(=O)c1ccc(-n2nnnc2SCC(=O)N2CCCCC2)cc1 | 0.72
CCNCCNC(=O)c1c(O)c2cccc3c2n(c1=O)CCC3 | -1
COc1ccccc1N1CCN(c2ncnc3sc(C(=O)NCCC4=CCCCC4)c(C)c23)CC1 | -0.34
CCCCN=C1NS(=O)(=O)c2ccccc21 | 0.28

Among those listed so far, 3 contain bromine.
SMILES | Measles inh
C=CCNC(=O)C1CC(=O)N(c2ccc(Br)cc2)C1 (configuration not stated) | 1.4
O=C(O)CCC(=O)N1N=C2C(=Cc3ccc(Br)cc3)CCCC2C1c1ccc(Br)cc1 (configuration not stated) | -1.1
CCOc1c(Br)cc(C2Nc3ccccc3NC3=C2C(=O)CC(c2cccs2)C3)cc1OC (configuration not stated) | 0.24

(next part)
SMILES | Measles inh
O=C(CSc1nnc(-c2cccnc2)o1)NCc1ccccc1 | -0.96
CCOC(=O)C1CCN(C(=O)CSc2cc(=O)n(C)c3cc(Cl)ccc23)CC1 | -0.02
CCC1C2c3ccccc3C(c3ccccc32)C1C(=O)Nc1ccc(C)cc1 (configuration not stated) | 0.22
Cc1cc(OCC(=O)NCCCN2CCOCC2)ccc1Br | 1.2
CCCCNC(=O)C(C)Sc1nc2nc(C)cc(C)n2n1 (configuration not stated) | -0.39
CC1=C(C(=O)Nc2ccccc2)C(c2ccccc2Cl)n2ncnc2N1 (configuration not stated) | 0.1
Cc1ccc(-c2csc3[nH]c(=S)n(-c4ccccc4)c(=O)c23)o1 | -0.02
CCC(=O)OCCNc1cc(SC2CCCCC2)c2nonc2c1[N+](=O)[O-] | 0.02

An excerpt from above in order of their number in Measles inh, descending.
SMILES	Measles inh
Cc1cc(OCC(=O)NCCCN2CCOCC2)ccc1Br	1.2
CC1=C(C(=O)Nc2ccccc2)C(c2ccccc2Cl)n2ncnc2N1 (configuration not stated)	0.1
CCCCNC(=O)C(C)Sc1nc2nc(C)cc(C)n2n1 (configuration not stated)	-0.39

Continuation:
SMILES | Measles inh
CN1CCCC1=Nc1cc(N(C)C)nc2ccccc12 | -1
CCc1ccc(NC(=NS(=O)(=O)c2ccc(C)cc2)Nc2nc(C)cc(C)n2)cc1 | -0.11
CSc1ccc(C2C(C(=O)Nc3cccc(F)c3)=C(C)NC3=C2C(=O)CC(C)(C)C3)cc1 (configuration not stated) | 0.01
N#Cc1c(NC(=O)CCCC(=O)O)sc2c1CCCC2 | -0.15
CCOC(=O)C1=C(C)NC(=O)NC1C=Cc1ccccc1 (configuration not stated) | 0.61
COC(=O)C1=CN(CC2CCCO2)C=C(C(=O)OC)C1c1ccc2c(c1)OCO2 (configuration not stated) | -0.33
CCOc1ccc(-n2c(SCC(=O)N3CCCCCC3)nc3c(c2=O)SCC3)cc1 | 1.4
COCCCNC(=O)C1c2ccccc2C(=O)N(C)C1c1cccs1 (configuration not stated) | 0.69

(cont.)
Compound	Measles inh
CCC(NC(=O)c1ccccc1NC(=O)c1ccccc1)C(=O)O (configuration not stated)	0.9
Cc1ccc(-c2nn(CC(=O)Nc3cccc(C(F)(F)F)c3)c(=O)c3ccccc23)cc1	0.86
COc1cc(C)c(C2Nc3ccccc3C(=O)N2c2ccccc2)cc1C(C)C (configuration not stated)	-1.1
NC(=O)c1c(NC(=O)C2C3C=CC(C3)C2C(=O)O)sc2c1CCCCC2 (configuration not stated)	0.19
Cc1cc(C(=O)Nc2ccc(N3CCOCC3)c3nonc23)ccc1[N+](=O)[O-]	-0.48
Cc1ccc(S(=O)(=O)Nc2ccc(Br)cc2C(NCC(=O)O)c2ccccc2)cc1 (configuration not stated)	1.9
COc1cccc2sc(=NC(=O)c3ccc(S(=O)(=O)N4CC(C)CC(C)C4)cc3)n(C)c12 (configuration not stated)	0.37
O=S(=O)(Nc1ccccc1Cl)c1ccccc1	2
CC(C)Cn1[nH]c2c3c(ccc2c1=O)C(=O)c1ccccc1C3=O	-0.74
COc1ccc(N2CCN(C(=O)CNS(=O)(=O)c3ccc(Br)s3)CC2)cc1	-1.4
CSc1nc2sc3c(c2c(=O)n1-c1ccc(Br)cc1)CC(C)(C)OC3	-0.11
Cc1cc(C(C)(C)C)cc(S(N)(=O)=O)c1C	-0.29
COC(=O)c1ccccc1NC(=O)c1cnn2c(C(F)(F)F)cc(-c3ccccc3)nc12	0.74
Cc1c(C(=O)NCc2ccccn2)oc2ccc(S(=O)(=O)N3CCOCC3)cc12	-1.3
COC(=O)c1cc(C(=O)OC)cc(N2C(=O)c3cccc(N)c3C2=O)c1	1.1
CCN(CC)CCNC(=O)CN1N=C(c2ccc(Cl)cc2)CCC1=O	-0.78
CCOC(=O)C1=C(N)N(c2ccc(S(N)(=O)=O)cc2)C2=C(C(=O)CCC2)C1c1ccc(SC)cc1 (configuration not stated)	0.99
CCOc1cc2[nH]c(=O)n(Cc3ccc(C(=O)N4CCN(c5cccc(Cl)c5)CC4)cc3)c(=O)c2cc1OCC	-0.17
CC(C)C(=O)Nc1c2c(nn1-c1ccc(Cl)cc1)CSC2	-0.4
COc1ccc(CN2C(=O)c3ccccc3C2C(=O)NCc2cccnc2)c(OC)c1 (configuration not stated)	1.6
O=C(c1ccccc1)N1CCN(C(=O)c2cnn3c2NC(c2ccc(Br)cc2)CC3C(F)(F)F)CC1 (configuration not stated)	0.14
S=C1NCN(Cc2ccco2)CN1CCc1ccccc1	-0.05
CC(C)CN(Cc1c(O)ccc2c1oc(=O)c1ccccc12)CC(C)C	-0.92
O=C(c1coc2nc3ccccc3nc12)N1CCN(c2ccccc2)CC1	-0.35
COc1cccc(NC(=O)c2nn(-c3cccc(OC)c3)c(=O)c3ccccc23)c1	-1.1
O=c1oc2ccccc2cc1-c1nnc(Nc2cccc(C(F)(F)F)c2)s1	0.01
CCn1cc(CN(C(=O)Nc2cccc(OC)c2)C2CCCCCC2)c2ccccc21	-1.4
Cc1ccc(C)c(OCCn2cc(C(=S)N3CCOCC3)c3ccccc32)c1	1.5
CCCCN(CCCC)S(=O)(=O)c1ccc2c(c1)oc(=O)n2C	-0.28
O=C(CN1C2=NCCCN2c2ccccc21)c1ccc(Br)s1	0.49
Cc1nc2cc(N=Cc3ccc(Br)cc3)ccc2n1C	-0.13
CC(C)(C)c1ccc(-c2cn(-c3ccccc3)c3[n+]2CCCS3)cc1	-1.5
CCC(O)(CCN1CCCCC1)c1ccccc1 (configuration not stated)	0.68
COc1cc(OC)c(NC(=O)c2sc3ncnc(N4CCCCC4C)c3c2C)cc1Cl (configuration not stated)	-0.52
CC(C)(C)C(=O)N1CC(=O)Nc2ccc(Cl)cc2C1c1ccc(F)cc1 (configuration not stated)	-1.5
Cc1ccc(NC(=O)CCS(=O)(=O)c2ccc(Br)cc2)nc1	0.81
Nc1cc(Sc2ccccc2)cc([N+](=O)[O-])c1	-0.52
CCOC(=O)CSc1nc(N)cc(=O)[nH]1	0.64
Clc1ccccc1Nc1ncnc2ccc(Br)cc12	-0.44
COc1cc([N+](=O)[O-])ccc1NC(=O)CC1Sc2ccccc2NC1=O (configuration not stated)	-0.59
O=C(CC1C(=O)N(Cc2ccccc2)C(=S)N1CCc1ccc(Cl)cc1)Nc1ccccc1 (configuration not stated)	-0.2
O=C(CCn1c(=O)c2ccccc2n(Cc2cccc([N+](=O)[O-])c2)c1=O)NCc1ccco1	0.06
COc1ccc2nc(NC(=O)c3cccc(Oc4ccccc4)c3)sc2c1	-0.82
COc1ccc(NC(=O)C(=O)NCCC2=CCCCC2)cc1	0.77
CN(c1ccc(Br)cc1)S(=O)(=O)c1cccc2nsnc12	-0.97
CCC(=O)N1c2ccccc2NC2=C(C(=O)CC(c3ccco3)C2)C1c1ccc(OC)cc1 (configuration not stated)	-0.01
CCOC(=O)C1=CN(C)C=C(C(=O)OCC)C1c1ccc(OC(F)(F)F)cc1	-0.27
COc1cccc(OC)c1C(=O)Nc1c2c(nn1-c1cccc(C)c1)CSC2	-1.7
COc1ccc(C(=O)Nc2c3c(nn2-c2ccc(C)cc2C)CSC3)cc1OC	-0.98
Cc1ccc(-n2c(=O)c3sccc3n(Cc3cc(=O)n4cc(Cl)ccc4n3)c2=O)cc1	-0.18
Cc1ccc(C)c(S(=O)(=O)n2ccnc2)c1	2.8
Cc1cccc(OCCSc2nc3ccccc3n2CCC(=O)O)c1	-0.25
CCc1cc2c(=O)c(-c3cnn(-c4ccccc4)c3)coc2c(CN2CCOCC2)c1O	-0.51
CC1CCCN(S(=O)(=O)c2ccc3[nH]c(=O)cc(C(=O)NCc4ccccc4)c3c2)C1 (configuration not stated)	0.27

Screens deposited in PubChem BioAssay by Emory University Molecular Libraries Screening Center.
